# Screening results: PubChem BioAssay, ICCB-Longwood Screening Facility, Harvard Medical School
# MenB inh – M. tuberculosis MenB inhibitors, primary screen, biochemical, absorbance | MenB enzyme assay, absorbance read-out; some hits fall short of the stated cut | inhibition, %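 (about 12 µg/mL by stock and volumes)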 | actives 0.43% (n = 100,000);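 active = mean of two replicates above 30%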;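 note: 0% = no compound and 100% = wells with inactive enzyme; the first replicate is given; strong numbers were not always called active; inactives centre near -10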
# PV pol inh – poliovirus RdRp elongation inhibitors, primary screen, biochemical, fluorescence polarization, total intensity | Genome polyprotein (Poliovirus type 1 (strain Mahoney)), P03300 | actives 0.66% (n = 150,000) | AID 588519, 2011 | % elongation, % (compound at 16.7 µg/mL) | poliovirus polymerase elongation; stronger effect = lower value; in the data active = % elongation below about 90%; note: some results filed as inactive read as strong as hits
# Target sequence (P03300 1749-2209 limits assumed): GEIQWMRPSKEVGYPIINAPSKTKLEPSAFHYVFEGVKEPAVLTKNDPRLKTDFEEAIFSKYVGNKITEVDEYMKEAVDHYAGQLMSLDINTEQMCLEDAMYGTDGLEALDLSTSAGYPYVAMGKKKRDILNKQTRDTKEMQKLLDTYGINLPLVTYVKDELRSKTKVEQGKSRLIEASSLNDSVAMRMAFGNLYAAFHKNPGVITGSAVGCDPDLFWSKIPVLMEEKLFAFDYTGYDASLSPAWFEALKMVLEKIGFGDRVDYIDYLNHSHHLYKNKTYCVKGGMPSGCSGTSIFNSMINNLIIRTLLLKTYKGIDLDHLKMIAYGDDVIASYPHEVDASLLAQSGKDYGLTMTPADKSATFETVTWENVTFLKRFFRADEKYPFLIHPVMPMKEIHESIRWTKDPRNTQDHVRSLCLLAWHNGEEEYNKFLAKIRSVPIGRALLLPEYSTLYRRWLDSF
# Mtb MbtI inh – MbtI salicylate synthase inhibitors, primary screen, biochemical, fluorescence intensity. P9WFX0. purified MbtI enzyme, fluorescence intensity read-out. inhibition, %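 (about 17 µg/mL by stock and volumes)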. actives 0.89% (n = 100,000);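 active = above 50% in both replicates, above 80% if mildly self-fluorescent; inactive = the rest, strongly fluorescent compounds included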;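 note: 0% = mean of negative and 100% = mean of positive controls; one replicate is shown; some compounds called inactive have numbers as strong as hits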
# Target sequence (P9WFX0 whole entry, looked up): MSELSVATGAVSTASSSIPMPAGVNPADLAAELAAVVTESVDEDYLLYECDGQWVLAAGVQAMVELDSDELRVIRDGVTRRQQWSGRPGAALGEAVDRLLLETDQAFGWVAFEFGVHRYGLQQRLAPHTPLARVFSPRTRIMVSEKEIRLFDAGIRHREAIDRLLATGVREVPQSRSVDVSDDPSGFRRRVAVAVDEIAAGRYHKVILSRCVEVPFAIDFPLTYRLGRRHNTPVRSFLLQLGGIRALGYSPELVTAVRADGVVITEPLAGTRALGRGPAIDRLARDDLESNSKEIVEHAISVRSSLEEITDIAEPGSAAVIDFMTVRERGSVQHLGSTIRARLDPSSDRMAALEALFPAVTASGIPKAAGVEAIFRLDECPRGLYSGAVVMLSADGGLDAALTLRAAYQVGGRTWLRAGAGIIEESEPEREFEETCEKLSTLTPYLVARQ
# PV pol inh intensity – further read-out of PV pol inh, marked with its call; % elongation; measured here: total intensity read-out; formula for this scale not given here;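 total fluorescence in place of polarization; lower means less elongation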
# The depositor's hits bear a star; x = no result given.
SMILES	MenB inh	PV pol inh	PV pol inh intensity	Mtb MbtI inh
CCn1c(N)c(C(=O)COC(=O)c2ccc(S(=O)(=O)C(F)F)cc2)c(=O)[nH]c1=O	10	x	x	7
O=C(O)C1C(c2ccccc2)C(C(=O)O)C1c1ccccc1 (stereo not given)	-16	100	106	6
O=C(CSc1nc(=O)n(CCN2CCOCC2)c2c1CCC2)NCc1ccccc1	-17	104	108	-17
CC1=NN(c2ccccc2)C(=O)/C1=N\OCC(=O)N1CCCc2ccccc21	-13	105	109	69
N#Cc1cn(C2CC2)c(=O)n(Cc2ccccc2)c1=O	-8	104	104	-2
O=C1Nc2ccccc2S/C1=C\c1cccc(Cl)c1	-30	102	102	-11
CN1C2=C(C(=O)CCC2)C(c2ccccc2)C2=C1CCCC2=O	-10	108	111	x
COC(=O)c1cc2cc(Br)ccc2c(Br)c1OC	0	103	102	-7
COC(CNC(=O)c1ccc(CNC(=O)c2cccc(Br)c2)cc1)OC	10	101	102	6
CC(=O)OC(COCc1ccccc1)Cn1cnc2ccccc21 (stereo not given)	-29	103	103	-3
NC(=O)c1nn(-c2ccc(Cl)cc2)c(=O)c2ccccc12	9	100	104	52
O=C(COc1ccccc1)Nc1cccc(-c2nn[nH]n2)c1	-10	102	104	-12
Cc1ccc(NC(=O)CN(C)C(=O)Nc2ccc(C)cc2)cc1	-16	101	104	19
CC(Cc1ccccc1)N=C1NS(=O)(=O)c2ccccc21 (stereo not given)	-35	103	101	-22
COC(=O)c1ccc(CN2CCN(Cc3ccc(C(=O)OC)o3)CC2)o1	-24	101	102	x
Cc1cccc(C(=O)NNc2ncnc3c2cnn3-c2ccc(Cl)cc2)c1	-22	101	101	-8
COc1ccc(/C=N/NC(N)=S)cc1	-20	101	104	32
COC(=O)c1cc(S(=O)(=O)N2CCOCC2)cn1C	-10	105	107	-6
O=S(=O)(Cc1ccccc1)NCc1ccccc1	-16	105	108	x
COc1ccc(-c2cc(-c3nc4c5ccccc5ncn4n3)[nH]n2)cc1	-4	100	102	1
COc1ccc(N=Cc2ccc3ncccc3c2)cc1	x	102	96	6
Cc1cc(C(=O)Oc2ccc(Cl)cc2)no1	-12	99	92	14
CCN(C(=O)Cc1ccc(F)cc1)C1CCCCC1	-22	101	101	-12
CCn1cc(CCC(=O)NCc2cccs2)c2ccccc21	-19	102	102	0
Nc1nonc1-c1nc2ccccc2n1CC(=O)Nc1ccccc1	1	109	116	x
C1CCC(NC(=NC2C3CC4CC(C3)CC2C4)N2CCOCC2)CC1 (stereo not given)	x	102	102	-19
Cc1ccc(NC(=O)COC(=O)C23CCC(=O)N2c2ccccc2C(=O)N3C2CC2)cc1C (stereo not given)	-19	109	109	-12
CC1CCc2nc3ccc(S(=O)(=O)N4CCC(C(=O)N5CCCC5)CC4)cc3c(C(=O)O)c2C1 (stereo not given)	-16	103	109	-6
C=CCOc1cc2c(cc1C(C)c1ccc(OC)cc1)OCO2 (stereo not given)	-17	102	108	x
COc1ccc2cc(Br)ccc2c1CC(=O)NN1CCN(C)CC1	-25	101	100	2

# Entries of single compounds as entered above:
# Profile of `Cc1ccc(NC(=O)COC(=O)C23CCC(=O)N2c2ccccc2C(=O)N3C2CC2)cc1C` (stereo not given) = MenB inh = -19; PV pol inh = 109; PV pol inh intensity = 109; Mtb MbtI inh = -12
# Profile of `COc1ccc(N=Cc2ccc3ncccc3c2)cc1` = MenB inh = x; PV pol inh = 102; PV pol inh intensity = 96; Mtb MbtI inh = 6

# Additional results follow:
SMILES	MenB inh	PV pol inh	PV pol inh intensity	Mtb MbtI inh
O=C(CNc1n[nH]c(=O)[nH]c1=O)N/N=C/c1ccccc1	10	102	102	17
CC(C)(C)OC(=O)N1CCN(S(=O)(=O)c2ccc(-n3cnnn3)cc2)CC1	11	105	106	10
NNC(=O)c1cccc(NN)n1	-121	106	102	8
CCc1ccc(NS(=O)(=O)c2ccc3c(c2)OCCN3C(C)=O)cc1	-2	100	107	-7
O=c1[nH]c(=S)[nH]c(O)c1-c1ccccc1	-56	101	99	85*
Cn1c(=O)n(C)c2cc(S(=O)(=O)N3CCCCC3)ccc21	11	104	102	-2
COC(=O)C(O)(c1c(-c2ccccc2)nc2sccn12)C(F)(F)F (stereo not given)	-24	103	109	-6
CCN(CC(=O)Nc1cccc(F)c1)CC(=O)Nc1ccc2c(c1)OCCO2	-39	104	94	-6
Cc1cc(Br)cc2c1N(C)C(=O)/C2=C1\SC(=Nc2ccc(F)cc2)NC1=O	6	104	99	2
C=C1OC(CO)(n2cnc3c(N)ncnc32)C(O)C1O (stereo not given)	8	101	104	x
CC(OC(=O)/C=C/c1ccco1)C(=O)Nc1cccc(Cl)c1 (stereo not given)	x	99	100	2
COc1ccc(NC(C)C(=O)Nc2nccs2)cc1 (stereo not given)	-7	101	101	5
CCOc1ccccc1NC(=O)c1oc2ccccc2c1NC(=O)C1CCCO1 (stereo not given)	4	100	105	35
CC(SC(=S)N1CCCC1)C(=O)O (stereo not given)	-35	104	104	8
O=C1CCCc2c1cc(C(=O)O)c(=O)n2-c1ccccc1	-18	101	102	19
COc1ccc(/C=N/C2=NNC(c3ccccc3)=CS2)cc1	-7	102	99	x
CN(C)CCCNC1=CC(=O)OC12CCCCC2	6	103	103	-6
CC(C)c1ccccc1NC(=O)c1cc2ccccc2o1	2	103	110	x
Cc1nn(-c2nc3ccccc3[nH]2)c(N)c1-c1ccc(Cl)cc1	-26	103	108	x
O=C(NC12CC3CC(CC(C3)C1)C2)c1ccccc1O	-11	101	102	-113
O=C(COC(=O)c1ccc(-n2cnnn2)cc1)Nc1ccc2ccccc2c1	-11	101	105	-19
CC(=O)Nc1ccc(/C=C2\CCc3ccccc3C2=O)cc1	-27	102	106	-16
O=C(O)/C=C/c1ccc(OC(F)F)cc1	-18	99	101	-1
c1coc(C2=NCCN2)c1	-13	103	103	-3
COc1ccc(C(c2nnnn2C(C)(C)C)N2CCN(c3ccccc3)CC2)cc1 (stereo not given)	10	99	100	-7
CC(C)OC1=NS(=O)(=O)c2ccccc21	1	101	108	-3
O=C(NCC1CC1)C1C2C3C4CC5C3C5C4C12 (stereo not given)	29	99	101	2
O=C(Nc1cc(Cl)ccc1Cl)c1cc(S(=O)(=O)NC2CCCC2)ccc1F	-31	101	97	-7
Cn1c(-c2cc(Br)cs2)nc(=O)c2cc(Cl)ccc21	-8	103	107	-5
CN1CCN(Cc2cn[nH]c2-c2ccc(F)cc2)CC1	-20	104	105	-4

# 5 entries out of the list, sorted by number of heavy atoms, smallest number first.
SMILES	MenB inh	PV pol inh	PV pol inh intensity	Mtb MbtI inh
CC(SC(=S)N1CCCC1)C(=O)O (stereo not given)	-35	104	104	8
O=C(O)/C=C/c1ccc(OC(F)F)cc1	-18	99	101	-1
CC(OC(=O)/C=C/c1ccco1)C(=O)Nc1cccc(Cl)c1 (stereo not given)	x	99	100	2
CCc1ccc(NS(=O)(=O)c2ccc3c(c2)OCCN3C(C)=O)cc1	-2	100	107	-7
CCN(CC(=O)Nc1cccc(F)c1)CC(=O)Nc1ccc2c(c1)OCCO2	-39	104	94	-6

# The listing continues:
SMILES	MenB inh	PV pol inh	PV pol inh intensity	Mtb MbtI inh
O=c1cc(C(F)(F)F)nc(SCc2ccccn2)[nH]1	11	99	102	26
Cc1ccc(O)c(C(=O)CC(=O)c2cccs2)c1	x	103	104	-12
CC1Cc2ccccc2N1S(=O)(=O)c1ccc2nc(-c3ccccc3)[nH]c2c1 (stereo not given)	-19	102	101	2
COc1ccc(C[C@H]2NC[C@H](O)[C@H]2OC(C)=O)cc1	-5	100	101	-12
COc1cccc(OCC(=O)Nc2cccc(Cl)c2)c1	x	103	103	-5
O=C(CSc1nc2ccccc2nc1SCC(=O)N1CCCCC1)N1CCCCC1	-19	103	106	x
O=C1CC(c2ccccc2Cl)Cc2nc(NCC3CCCO3)ncc21 (stereo not given)	-17	103	102	1
CC(NCC(O)Cn1nnnc1-c1ccccc1)c1ccccc1 (stereo not given)	-3	104	104	-5
CC1(C)CC(=O)C2=C(C1)OC(N)=C(C#N)C21C(=O)N(CCc2ccccc2)c2ccccc21 (stereo not given)	-10	105	109	x
CC(N)C(=O)Nc1ccccc1-c1ccccc1 (stereo not given)	-14	99	103	-8
Nc1n[nH]c2nc(C(F)(F)F)cc(=O)n12	-7	100	101	-42
Cc1sc(/N=C/c2ccc(Cl)c(Cl)c2)c(C#N)c1C	1	102	112	x
Cc1ccc(C(C)NC(=O)c2c(-c3ccccc3Cl)noc2C)c(C)c1 (stereo not given)	-8	101	104	-8
CCc1ccc(C2N3CC4(C)CN2CC(C)(C3)C4)cc1 (stereo not given)	7	99	102	-5
Cc1ccccc1-c1nc(CS(=O)CC(=O)NC(C)C)c(C)o1 (stereo not given)	-12	104	103	6
CC1CCN(c2ncnc3ccc(Br)cc23)CC1	-28	100	100	1
Cc1cc(NN)nc(SCC(=O)NN)n1	-22	106	102	x
O=C(COC(=O)c1cc2c(s1)CCCCC2)c1cccs1	-19	106	107	-2
COc1ccccc1N1CCN(C(=O)CC2SC(N)=NC2=O)CC1 (stereo not given)	-8	107	110	10
Cc1ccc(N2C(=O)C(N3C(=O)CCC3=O)C2c2ccc(F)cc2)cc1 (stereo not given)	x	102	106	-10
Cc1cc(C(=O)N(C/C=C/c2ccccc2)c2ccc3c(c2)OCCO3)no1	-11	107	102	22
COC(=O)c1c(SCc2ccc(C#N)cc2)nc(=O)[nH]c1C	9	122	133	1
O=C(CCSc1ccccc1)Nc1nccs1	-1	99	103	-3
O=C(CCNC(=O)c1ccccc1Cl)Nc1cc(Cl)ccc1N1CCOCC1	-21	104	97	-6
O=S(=O)(NCCCc1nc2ccccc2[nH]1)c1ccccc1	-9	101	101	-26
CC1CN(/C(N)=N/S(=O)(=O)c2cc(C(F)(F)F)cc(C(F)(F)F)c2)CC(C)O1 (stereo not given)	-20	104	101	-6
COc1ccc(S(N)(=O)=O)cc1C(=O)OCc1cc(=O)oc2cc(NC(C)=O)ccc12	-9	95	109	-45
COc1cccc(N/C(N)=N/c2nc(CSc3ccccn3)cc(=O)[nH]2)c1	-1	101	103	-5
CCCCN1C(=O)/C(=C2/Sc3ccc(OC)cc3N2C)SC1=S	-1	104	110	-2
Cc1ccc(OC(C)n2ccc3c2CCCC3)cc1 (stereo not given)	-23	124	135	x
CC(=O)Nc1nonc1NC(=O)CSc1ncccn1	-8	106	107	x
CC(C)c1ccc(-c2noc(C3CCCN(C(=O)c4ccccc4)C3)n2)cc1 (stereo not given)	-11	99	100	-11
COc1ccc(C=Nc2ccccc2Sc2ccccc2)cc1O	x	101	101	4
Cc1oc(CC(C)C)cc1C(=O)Nc1cccc(C(=O)O)c1	-12	99	101	1
CC1CC(=O)Nc2ccccc2N1C(=O)CSc1ccccn1 (stereo not given)	-33	113	127	-3
O=C(OCc1ccccc1)c1cccc(OC(F)F)c1	-35	101	87	6
O=C(COC(=O)Cn1cc(C(F)(F)F)ccc1=O)NCc1ccco1	17	102	95	10
CC1=NC(C(F)(F)F)(C(F)(F)F)C2=C(CC(C)(C)CC2=O)N1CC1CCCO1 (stereo not given)	-3	101	102	7
Cn1c(C(C#N)c2ncc(Cl)cc2Cl)nc2ccccc21 (stereo not given)	x	99	99	-8
CC(C)(C)c1cc(N=O)cc(C(C)(C)C)c1O	-48	103	100	4
CCc1c(CN(C)Cc2ccccc2)csc1C	-14	101	103	-13
NNc1nc2c(-c3ccc(Cl)cc3)nnn2c2ccccc12	-7	101	102	-8
CC(C)COC(=O)Cn1cnc2ccc(Br)cc2c1=O	-7	102	102	20
FC(F)(F)c1ccc(CSc2c[nH]c3ccccc23)cc1	-19	104	103	4
COc1ccccc1CNC(=O)c1ccccn1	-34	102	102	-3
COc1cccc(NC(=O)CCCSc2nc(-c3ccco3)cc(C(F)(F)F)n2)c1	-9	103	103	6
CC(=O)N1CCC(N(C(=O)Nc2ccccc2)C(C)C)CC1	-3	103	100	-3
CCOc1ccc(CCN2C(=O)C3C4C=CC(C4)C3C2=O)cc1OCC (stereo not given)	-5	105	109	x
CN(C(=O)COc1cc(=O)n(C)c2ccccc12)c1ccc(Br)cc1	4	101	103	-6
CN(C(=O)CSc1cc(=O)n(C)c2ccccc12)C1CCCCC1	-10	102	103	5
Fc1ccccc1CNCCCn1ccnc1	16	101	107	-5
CC[n+]1c(/C=C2\C=C(C)CC(C)(C)C2)oc2ccccc21	-144	101	103	12
Cc1[nH]c2ccc(C(=O)OCC(=O)N3CCCC3=O)cc2c1C	-3	104	106	24
O=C(CSCc1cnn(-c2ccccc2)c1-n1cccc1)N1CCN(c2ccccn2)CC1	-3	102	102	-24
O=C(COc1ncnc2sc3c(c12)CCCC3)NC1CCS(=O)(=O)C1 (stereo not given)	-25	106	111	12
O=C(COc1ccccc1)NCc1nc2ccccc2n1Cc1ccc(Cl)cc1	-15	104	106	-17
